VACV Venus inh: qHTS for Stage-Specific Inhibitors of Vaccinia Orthopoxvirus: Venus Reporter Primary qHTS; Vaccinia virus Venus reporter expression, fluorescence; Potency, µM (highest dose often 36.5 µM), without a hit: at the highest dose activity change, negative = inhibition, most hits filed as inhibitors; 330,000 tested, 0.46% active; AID 720580, 2013; active means well fitted inhibition curve with a large enough effect; inconclusive means small, poorly fitted or top-dose-only effect; inactive means no such curve, though single readings can be large or run the other way; tested in A549 cells; also: nearly all actives have a fitted effect of over 30% in size; inactives centre near -10
Vaccinia mCherry: qHTS for Stage-Specific Inhibitors of Vaccinia Orthopoxvirus: mCherry Reporter Primary qHTS; Vaccinia virus mCherry reporter infection, fluorescence; about a quarter of the inactives have no number; Potency, µM (doses to about 36.5 µM), inactives show at the top dose activity change, negative = inhibition, most hits filed as inhibitors; 310,000 tested, 0.63% active; AID 720579, 2013; active = well fitted inhibition curve with a large enough effect; inconclusive = small, poorly fitted or top-dose-only effect; inactive = no such curve, though single readings can be large or run the other way; tested in A549 cells; also: nearly all actives have a fitted effect of over 35% in size; inactives centre near -10
An asterisk follows results filed as active; i = inactive; ? = inconclusive; . = not tested or not shown; & = joins results of further samples; [ ] = remark or other dose. % is scaled to controls: 0 for no effect and ±100 for the full control effect; potency is read from the fitted curve at half-maximal effect.

SMILES	VACV Venus inh	Vaccinia mCherry
O=C(NC1CCCCC1)C(c1ccnc2ccccc12)n1c(=O)c(-c2ccccc2)nc2ccccc21 (centres undefined)	?	-0.2%
Cc1ccc([N+](=O)[O-])cc1S(=O)(=O)Nc1ccc(-c2ccc(N3CCOCC3)nn2)cc1	-15.8%	-23.7%
Cn1nnnc1SCCCNCc1cccc(OCc2ccccc2F)c1	-19.7%	-16.9%
Cc1ccc2occ(C3N[C@H](C(=O)O)CS3)c(=O)c2c1 (some centres undefined)	?	i
CC(C)CC(N)c1csc(Nc2ccc(S(C)(=O)=O)cc2)n1 (centres undefined)	-7.5%	-6.2%
CC(C)(CNC(=O)c1ccc(NS(=O)(=O)c2ccc(Br)cc2)cc1)N1CCOCC1	-15.8%	-18.8%
CC1=Nc2ccccc2/C1=C\c1sc(Nc2ccc(C)cc2)nc1O	?	-49.4%
COc1cccc(OC)c1OCCCCCc1c(C)n[nH]c1C	?	.
CC1CCCN(c2ccc(C(=O)NCc3ccccc3)cn2)C1 (centres undefined)	?	-2.1%
O=C(CSC1CN(C(c2ccccc2)c2ccccc2)C1)N/N=C/c1ccccc1	-13.4%	-54.9%
Cc1ccc(/C=N/NC(=O)CSCc2ccc(Cl)cc2)cc1	-28.1%	-20.0%
Cc1c(C(=O)OCC(=O)N2CCN(c3ccccc3)CC2)oc2ccccc12	-1.3%	-17.9%
NS(=O)(=O)c1ccc(NC(=O)CN2CCc3ccccc32)cc1	-20.7%	i
O=C(NCc1ccccc1)C(c1cccc2ccccc12)n1c(=O)c(-c2ccco2)nc2ccccc21 (centres undefined)	11.7%	-9.8%
CNS(=O)(=O)c1ccc(CNC[C@H]2O[C@@H](n3cc(C)c(=O)[nH]c3=O)C[C@@H]2O)cc1	-2.6%	i
COc1cc(NC(=O)CC(C)n2nc(C)cc2C)cc(OC)c1 (centres undefined)	-13.9%	-7.8%
Cc1cccc(CN2CCN(CC(=O)Nc3c(C)cccc3C)S2(=O)=O)c1	3.1%	-8.9%
CCOC(=O)C1=C(N)OC2=C(C(=O)CCC2)C1c1ccc(C)s1 (centres undefined)	-3.6%	-8.2%
O=C(O)c1ccc(-n2ncc(Cl)c(Cl)c2=O)cc1	-14.0%	-0.3%
CCOc1cc(/C=N/NC(=O)C2CC2)ccc1OC(C)C	-6.1%	i

Among those listed so far, two contain an NH in an aromatic ring:
SMILES	VACV Venus inh	Vaccinia mCherry
COc1cccc(OC)c1OCCCCCc1c(C)n[nH]c1C	?	.
CNS(=O)(=O)c1ccc(CNC[C@H]2O[C@@H](n3cc(C)c(=O)[nH]c3=O)C[C@@H]2O)cc1	-2.6%	i

Going on with the list:
SMILES	VACV Venus inh	Vaccinia mCherry
CCOc1cc(C(=S)N2CCOCC2)ccc1OS(=O)(=O)c1ccc(Br)cc1	-24.1%	i
O=C1c2ccccc2C(=O)N1CSc1ncccn1	-8.1%	.
O=C(CN1C(=O)c2ccccc2S1(=O)=O)NCc1ccc2c(c1)OCO2	3.5%	-14.7%
COc1ccccc1NC(=O)N1CCCC1C(=O)NC12CC3CC(CC(C3)C1)C2 (centres undefined)	-7.4%	-13.6%
CC[N+](C)(C)CC/C=C1/c2ccccc2Sc2ccc(Cl)cc21	-4.7%	i
NS(=O)(=O)c1cccc(NC(=O)C(Cc2ccccc2)NC(=O)c2ccccc2)c1 (centres undefined)	-17.0%	i
CC(C)S(=O)(=O)c1csc(C(=O)NN)c1-n1cccc1	-16.7%	-26.6%
CCOC(=O)c1ccc2[nH]c(C)c(C)c2c1	-10.6%	.
COc1cc(NC(=O)c2cccnc2)c(OC)cc1NC(=O)c1ccc(Br)cc1	-10.1%	i
CCc1ccc(C(=O)NNC(=O)CN2C(=O)NC(CC)(c3ccccc3)C2=O)cc1 (centres undefined)	3.4%	-14.2%
COc1ccc(CCNC(=O)Cn2nnc(-c3cccc(C(F)(F)F)c3)n2)cc1OC	-5.1%	-4.7%
O=C(CCSc1ccccc1)OCn1nnc2ccccc2c1=O	-10.8%	-0.2%
CC(C)(C)OC(=O)N1CCC(C(=O)Nc2ccc(C(=O)NC3CC3)cc2)CC1	-9.5%	i
CC(C)NS(=O)(=O)c1ccc(NCCCn2ccnc2)c([N+](=O)[O-])c1	-6.4%	1.5%
CCc1cccc(NC(=O)CSc2nnc(Cc3ccc(OC)cc3)c(=O)[nH]2)c1	-7.6%	-11.3%
COC(=O)C1=C(C)N(C(C)c2ccccc2)C(=O)C1 (centres undefined)	1.7%	-6.2%
CCCc1cc(=O)[nH]c(SCC(=O)c2c[nH]c3ccccc23)n1	-3.9%	4.9%
Cc1ccc(NCc2nnc(SCC(=O)N3c4ccccc4Sc4ccccc43)o2)c(C)c1	-28.4%	-15.6%
CC(C)N(C(=O)Cn1cc(S(=O)(=O)Cc2ccc(C(F)(F)F)cc2)c2ccccc21)C(C)C	-12.5%	-1.9%
CC(NC(=O)C1CCC(C)(C(=O)O)C1(C)C)c1ccccc1 (centres undefined)	-4.2%	-13.6%
CN1CCN(S(=O)(=O)c2ccc(CNC(=O)c3ccccc3)s2)CC1	-19.4%	i
N#C/C(=C\c1ccccc1OCc1ccc(C(=O)O)cc1)C(=O)Nc1ccc(O)cc1	-4.7%	7.8%
CC(=O)N1CCCc2cc(S(=O)(=O)N3CCC(C(=O)NCc4cccc(C)c4)CC3)ccc21	-7.8%	-5.1%
Cc1ccc2oc(-c3ccc(C)c(NC(=O)COc4ccc(Cl)cc4)c3)nc2c1	-7.6%	i
O=C(CN(C(=O)CCC(=O)Nc1nccs1)c1cccc(F)c1)NCCc1ccccc1	-7.3%	-2.0%
Cc1cccc(NC(=O)CN2CCN(C(=O)c3cccc(-n4cnnn4)c3)CC2)c1C	-10.4%	-14.4%
COc1ccccc1C(C)NCC(=O)NC(=O)NCc1ccco1 (centres undefined)	-17.0%	i
CC(Sc1cccc[n+]1[O-])C(=O)Nc1cccc(S(=O)(=O)N2CCOCC2)c1 (centres undefined)	-5.7%	-16.2%
COC(=O)N/N=C/c1cn(CCCOc2ccccc2)c2ccccc12	?	?
O=C(CNc1ccccc1-c1ccccc1)NCc1ccccc1	-8.3%	i
CC1(C)OC(=O)C2(Cc3cc([N+](=O)[O-])ccc3N3CCCCC32)C(=O)O1 (centres undefined)	-7.9%	15.7%
Cc1cccc(Nc2ncc(NC(=O)c3cccc(F)c3)c(Nc3cccc(C)c3)n2)c1	?	?
Cc1c(Cl)cccc1-n1nc(C)c2c(C)cc(=O)n(CC(=O)N3CCCc4ccccc43)c21	-7.7%	i
COC(=O)c1sc2nc(CSc3nc4ccc(C)cc4[nH]3)[nH]c(=O)c2c1C	-5.3%	.
CCN1CCN(c2ccc(S(=O)(=O)N3CCCCC3)cc2NC(=O)c2cccc(NC(C)=O)c2)CC1	-19.6%	-9.8%
Cc1ccc(-n2ncc(C(=O)Nc3ccc(Cl)cc3)c2C2CCNCC2)cc1C	?	?
CC1CCN(c2c(NCc3ccc(C(=O)N4c5ccccc5CC4C)cc3)c(=O)c2=O)CC1 (centres undefined)	-23.4%	-7.2%
CCc1ccccc1NC(=O)c1noc2c1CC(C(C)(C)C)CC2 (centres undefined)	-0.3%	-7.9%
Cc1cccc2nc(CSc3nc4cc([N+](=O)[O-])ccc4s3)cn12	-0.5%	-15.7%
COc1cccc(N=Nc2ccc(O)c3ncccc23)c1	?	?
O=C1CCN(Cc2ccc(Br)cc2)CCN1[C@H](CO)c1ccccc1	-9.2%&-13.7%	-6.7%
Cc1ccc(C(=O)O/N=C\c2ccc(N3CCOCC3)c([N+](=O)[O-])c2)cc1	-0.4%	i
CCS(=O)(=O)Nc1ccc(-c2nc3cccnc3s2)cc1	-1.5%	-11.7%
COC(=O)[C@@]12CCCCN1[C@H](c1ccc(-c3ccc(C(C)=O)cc3)c(OC)c1)[C@@H]1C(=O)N(C)C(=O)[C@@H]12	-22.7%	-5.4%
COc1ccc(N(CC(=O)N/N=C/c2cc(Br)c(C)o2)S(=O)(=O)c2ccc(NC(C)=O)cc2)cc1	-7.9%	i
CCOC(=O)C1CCCN(S(=O)(=O)c2ccc(S(=O)(=O)N(CC)CC)cc2)C1 (centres undefined)	-25.0%	i
COc1ccccc1C1(CC(=O)O)CCOC(C)(C)C1 (centres undefined)	-5.2%	i
CN(C)c1ccc(/C=N/N=C(N)N)cc1[N+](=O)[O-]	-24.3%	?
CCOC(=O)Nc1ccc(C)cc1NC(=O)OCC	0.8%	-7.4%
O=C1CCCCCCC1Sc1ccccc1[N+](=O)[O-] (centres undefined)	-8.3%	i

Entries of single compounds, quoted from the list. Screens in order: VACV Venus inh | Vaccinia mCherry
CCOC(=O)C1CCCN(S(=O)(=O)c2ccc(S(=O)(=O)N(CC)CC)cc2)C1 (centres undefined) in the list: -25.0% | i
Cc1ccc(C(=O)O/N=C\c2ccc(N3CCOCC3)c([N+](=O)[O-])c2)cc1 in the list: -0.4% | i
CN(C)c1ccc(/C=N/N=C(N)N)cc1[N+](=O)[O-] in the list: -24.3% | ?
COc1ccc(N(CC(=O)N/N=C/c2cc(Br)c(C)o2)S(=O)(=O)c2ccc(NC(C)=O)cc2)cc1 in the list: -7.9% | i

(cont.)
SMILES	VACV Venus inh	Vaccinia mCherry
Cc1cc([N+](=O)[O-])cc(C)c1OCC(=O)N/N=C/c1ccc(OC(=O)c2ccccc2Br)cc1	-7.4%	-3.6%
COc1ccccc1NC(=O)CSc1nnc(CC(=O)Nc2ccccc2F)n1C	-1.1%	-11.1%
COc1cccc(Nc2nnc(-c3cc4ccc(O)cc4oc3=O)s2)c1	29.1%	-6.1%
COc1cc(OC)cc(C(=O)N2CCN(c3ccccc3F)CC2)c1	?	-9.3%
COc1ccc(C2=NS(=O)(=O)N(C)C(C(=O)N3CCC(C(N)=O)CC3)=C2)cc1	2.8%	i
COc1ccc(N2C(=O)C(CC(=O)Nc3ccccc3)N(Cc3cccs3)C2=O)cc1 (centres undefined)	-8.8%	-16.4%
CCOC(=O)c1sc(-n2[nH]c(C)cc2=O)nc1C	-3.2%	.
CCc1nccc2c1[nH]c1ccccc12	-6.4%	-1.7%
CN(C)c1nc(OCCNC(=O)Nc2ccccc2)nc(N(C)C)n1	-15.4%	.
COc1cc(-c2noc(C)c2C#CCCN2C(=O)c3ccccc3C2=O)cc(OC)c1OC	-6.7%	-15.1%
COc1ccc(C2=NN(C(C)=O)C(c3ccccc3)C2)cc1 (centres undefined)	-9.4%	-16.9%
Cc1ccnc(Nc2nc(-c3ccc(F)cc3)cs2)c1	-22.1%	?
COc1cccc(N2CCN(c3nc4ccc(C(=O)c5ccccc5)cc4n4c(C)nnc34)CC2)c1	-15.2%	-10.6%
CSc1ncccc1C(=O)OCC(=O)NC1CCS(=O)(=O)C1 (centres undefined)	-3.6%	-8.2%
C[C@@H]1CCCCO[C@H](CN(C)C(=O)Cc2ccccc2)[C@@H](C)CN([C@H](C)CO)C(=O)c2cc(NC(=O)Nc3ccccc3)ccc2O1	?	5.0%
O=C(O)CNS(=O)(=O)c1ccc(Br)s1	-2.2%	-18.5%
CN(CCOc1ccccc1)CC(=O)Nc1cc([N+](=O)[O-])ccc1Cl	-20.4%	-2.2%
CN(C)c1nc(/C=C(\C#N)C(N)=O)c(Cl)n1-c1ccc(F)cc1	?	?
COc1ccc(/C=N/NC(=O)c2[nH]c3ccc(Cl)cc3c2-c2ccccc2)c(C(=O)O)c1OC	-26.9%	-9.5%
O=C(COC(=O)c1cc[n+]([O-])cc1)NCc1ccccc1Cl	-1.2%	-6.8%
CC(=O)c1ccc(NC(=O)c2cn(-c3ccccc3)nc2-c2ccncc2)cc1	-21.6%	.
CCCS(=O)(=O)NC(=O)C1(C)CCN(C(=O)Cc2ccc(OC)c(OC)c2)C1 (centres undefined)	-6.3%	6.5%
CC(C)CC(=O)O/N=C1\C(=O)N(c2ccccc2)c2ccccc21	-12.7%	-5.0%
CCOC(=O)c1cc(C)[nH]c1C	-3.7%[7.34 µM]	i[7.34 µM]
CCOC(=O)c1ccc(Cn2c(-c3ccccc3)nnc2-c2ccccc2)o1	-15.6%	i
COc1cccc(CNC(=O)CCCn2ccc3cc(S(=O)(=O)N4CCCC4)ccc32)c1	-23.3%	?
COC(=O)CN1C(=O)CSc2ccc(S(=O)(=O)Nc3ccc(Cl)cc3C)cc21	-1.9%	-3.1%
COc1ccc(Br)cc1/C=N/NC(=O)CN1CCN(Cc2ccccc2)CC1	-22.1%	-11.1%
CCOC(=O)c1cc(C#N)c(SC)nc1-c1ccccc1	-21.2%	.
O=C(Nc1nnc(-c2ccccc2Cl)o1)c1nc2ccccc2s1	-19.1%	?
CC(Sc1nnc(COc2ccccc2)n1Cc1ccccc1)C(=O)O (centres undefined)	-9.6%	i
Cc1ccccc1CNC(=O)CN1CCSc2ccccc21	2.8%	0.3%
CC(=O)Cc1cc(O)c2ccccc2c1OC(=O)c1ccccc1	1.9%	?
O=C(COC(=O)c1ccccc1SCC(=O)N1CCCC1)Nc1ccccc1C(F)(F)F	-9.2%	-10.6%
CC(C)CNC(=O)C1c2ccccc2Oc2ccccc21	-2.6%	-13.2%
Cc1ccc(Cn2nnc3c(=O)n(CC(=O)NCc4ccco4)cnc32)cc1	-22.9%	-25.5%
O=C(COC(=O)[C@H](Cc1ccccc1)NC(=O)c1cccs1)NC1CC1	-11.0%	-12.6%
c1ccc(OCc2nnc3n2N=C(c2ccccc2)CS3)cc1	-6.1%	-3.9%
COCCCNC(=O)c1cnn(-c2ncc3c(n2)-c2ccccc2CCC3)c1C	-11.3%	-10.1%
O=C1c2oc3ccccc3c(=O)c2C(c2ccccn2)N1Cc1ccccc1 (centres undefined)	-8.3%	-16.7%
